Screening results: PubChem BioAssay, ICCB-Longwood Screening Facility, Harvard Medical School
Polio RdRp inh: poliovirus RNA polymerase inhibition | P03300 | poliovirus polymerase elongation, fluorescence polarization; stronger effect = lower value | % elongation, % (compound at 16.7 µg/mL) | 150,000 compounds, 0.66% hits | AID 588519; in the data active = % elongation below about 90%; note: some results filed as inactive read as strong as hits
MenB inh: inhibitors of Mycobacterium tuberculosis MenB enzyme; 100,000 compounds, 0.43% hits; inhibition, %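 (about 12 µg/mL by stock and volumes)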; P9WNP5; MenB enzyme assay, absorbance read-out; some hits fall short of the stated cut;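 active = mean of two replicates above 30%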;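 note: 0% = no compound and 100% = wells with inactive enzyme; the first replicate is given; strong numbers were not always called active; inactives centre near -10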
Target sequence (P9WNP5 whole entry, looked up): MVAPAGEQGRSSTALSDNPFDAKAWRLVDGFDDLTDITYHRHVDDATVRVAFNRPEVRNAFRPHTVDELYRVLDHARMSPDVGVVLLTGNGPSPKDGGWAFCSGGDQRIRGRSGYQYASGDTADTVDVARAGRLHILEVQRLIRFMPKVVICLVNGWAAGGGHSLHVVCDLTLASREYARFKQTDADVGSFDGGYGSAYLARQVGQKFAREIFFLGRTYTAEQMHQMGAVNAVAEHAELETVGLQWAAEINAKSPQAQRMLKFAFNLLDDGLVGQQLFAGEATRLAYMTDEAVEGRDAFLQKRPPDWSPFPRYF
MbtI inh: blocks the Mycobacterium tuberculosis siderophore enzyme MbtI; P9WFX0; purified MbtI enzyme, fluorescence intensity read-out; inhibition, %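 (about 17 µg/mL by stock and volumes)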; 100,000 compounds, 0.89% hits; AID 493033;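 active = above 50% in both replicates, above 80% if mildly self-fluorescent; inactive = the rest, strongly fluorescent compounds included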;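 note: 0% = mean of negative and 100% = mean of positive controls; one replicate is shown; some compounds called inactive have numbers as strong as hits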
Target sequence (P9WFX0 whole entry, looked up): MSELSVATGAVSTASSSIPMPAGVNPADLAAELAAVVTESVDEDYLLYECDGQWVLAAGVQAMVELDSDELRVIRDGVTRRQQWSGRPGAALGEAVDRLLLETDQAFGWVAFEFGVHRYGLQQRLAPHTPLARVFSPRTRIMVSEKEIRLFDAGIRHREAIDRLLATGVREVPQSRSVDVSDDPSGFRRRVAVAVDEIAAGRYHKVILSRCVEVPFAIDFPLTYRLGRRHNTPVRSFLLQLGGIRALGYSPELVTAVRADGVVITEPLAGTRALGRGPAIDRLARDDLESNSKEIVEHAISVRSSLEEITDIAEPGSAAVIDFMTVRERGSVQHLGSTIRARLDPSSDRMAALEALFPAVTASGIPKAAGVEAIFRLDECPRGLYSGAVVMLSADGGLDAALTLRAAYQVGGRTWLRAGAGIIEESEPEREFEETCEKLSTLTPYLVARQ
Polio RdRp inh intensity: recorded beside Polio RdRp inh, whose call it bears; % elongation; measured here: total intensity read-out; formula for this scale not given here;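 total fluorescence in place of polarization; lower means less elongation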
* hit, by the source's call; / = no result given. Compounds as they come (roughly 1.7% active in at least one column).

SMILES	Polio RdRp inh	Polio RdRp inh intensity	MenB inh	MbtI inh
CCCCN1C(=O)SC(Nc2ccc(F)cc2)C1=O (configuration not stated)	/	/	-19.0	-5.2
NC(=O)Cn1cnc2c(nnn2-c2ccc(OC(F)(F)F)cc2)c1=O	101.0	109.0	-5.8	-4.9
Cc1occc1C(=O)NC1CCN(C)CC1	99.0	99.0	-22.6	0.2
O=C(Nc1cccc(Cn2cccn2)c1)c1csc2ccccc12	98.0	101.0	-14.8	9.5
CCCc1nc2ccccc2c(N)c1CC	101.0	102.0	12.9	-174.4
COC(=O)N/N=C/C1CCCCC1	101.0	97.0	4.7	8.0
Cc1cc(Nc2ccc(C(=O)Nc3ccc4c(c3)OCO4)cc2)n2ncnc2n1	105.0	106.0	-12.3	22.4
O=C(O)C1Nc2c(I)cccc2C2C=CCC12 (configuration not stated)	93.0	95.0	-16.8	102.8*
Cc1cccc(NC(=O)c2nnn(-c3cccc(C(F)(F)F)c3)c2N)c1	101.0	95.0	1.4	4.1
CC(Sc1cccc[n+]1[O-])C(=O)Nc1cccc(Cl)c1 (configuration not stated)	99.0	101.0	/	5.5
NC(=O)c1c(NC(=O)/C=C/c2cccs2)sc2c1CCCC2	99.0	103.0	-43.2	52.9*
O=C(C1COc2cc(S(=O)(=O)NCCc3ccccc3)ccc2O1)N1CCCCC1 (configuration not stated)	101.0	99.0	-25.2	4.8
O=C(OCC(=O)N(Cc1ccccc1)C1CCS(=O)(=O)C1)c1cc2c(s1)CCC2 (configuration not stated)	/	/	-11.0	0.0
COc1ccc(C2=NN(CCC(=O)NCCCN3CCN(c4ccccc4F)CC3)C(=O)CC2)cc1	100.0	103.0	-6.8	-1.6
C/C=C/C(=O)Nc1nc2ccc(OC)cc2s1	100.0	101.0	-9.2	-33.1
O=C(NCc1ccco1)c1ccccc1OC(F)F	104.0	110.0	-20.8	7.7
FC(F)(F)c1cccc(-n2nnnc2-c2ccccc2)c1	100.0	100.0	12.7	-5.8
c1csc(N2CCCC2)n1	93.0	119.0	-19.2	7.0
ONc1nc2ccccc2nc1NO	101.0	102.0	-27.0	-46.0
COc1ccccc1CNC(=O)COC(=O)c1cccc2ccccc12	101.0	96.0	/	5.3
O=C(CC1(O)C(=O)N(CCc2ccccc2)c2ccc(Br)cc21)c1ccco1 (configuration not stated)	99.0	102.0	-1.6	-5.8
CCOC(=O)C1=C(c2ccccc2)Nc2nnnn2C1c1ccc(Br)cc1 (configuration not stated)	102.0	101.0	-10.7	3.3
S=c1[nH]nc(C23CC4CC(CC(C4)C2)C3)o1	98.0	92.0	-31.7	6.7
Nc1cc(C(F)(F)F)ccc1NCc1ccccc1	104.0	102.0	/	68.2
CNC(=O)NC(=O)CSc1ccc(NC(C)=O)cc1	101.0	104.0	8.6	-1.8
[O-][N+]12CC[N+]([O-])(CC1)c1ccccc12	100.0	99.0	-7.4	6.2
COC(=O)Cn1cc(C=C2C(=O)N(C)C(=O)N(C)C2=O)c2ccccc21	101.0	103.0	10.7	0.4
CCN=C1S/C(=C/c2cn(CC(=O)Nc3ccccc3)c3ccccc23)C(=O)N1CC	98.0	102.0	-43.0	0.5
CCOC(=O)C1CCN(c2ncnc3c2cnn3C)CC1	100.0	101.0	-19.0	-2.3
CN(Cc1ccccc1)C(=O)c1noc2c1COc1ccccc1-2	105.0	97.0	-19.6	-8.2

Nothing new here: entries from further up.
SMILES	Polio RdRp inh	Polio RdRp inh intensity	MenB inh	MbtI inh
[O-][N+]12CC[N+]([O-])(CC1)c1ccccc12	100.0	99.0	-7.4	6.2
COC(=O)Cn1cc(C=C2C(=O)N(C)C(=O)N(C)C2=O)c2ccccc21	101.0	103.0	10.7	0.4
CCN=C1S/C(=C/c2cn(CC(=O)Nc3ccccc3)c3ccccc23)C(=O)N1CC	98.0	102.0	-43.0	0.5
CCOC(=O)C1CCN(c2ncnc3c2cnn3C)CC1	100.0	101.0	-19.0	-2.3
CN(Cc1ccccc1)C(=O)c1noc2c1COc1ccccc1-2	105.0	97.0	-19.6	-8.2

(list continues)
SMILES	Polio RdRp inh	Polio RdRp inh intensity	MenB inh	MbtI inh
O=C(Nc1ccccc1C(=O)O)OCC1c2ccccc2-c2ccccc21	103.0	105.0	-0.3	-163.1
Cc1cc2nnc(C(=O)/C=C/N(C)C)c(C)n2n1	97.0	99.0	-124.6	9.7
CC1(CCc2ccccc2)NC(=O)N(NC(=O)COc2ccc(C#N)cc2)C1=O (configuration not stated)	102.0	95.0	-21.1	-1.1
CCOc1ccc(C(=O)CCC(=O)N2CCNC(=O)C2)cc1	106.0	110.0	-17.9	-12.1
Cc1sc2ncnc(NCc3ccccn3)c2c1C	102.0	106.0	-17.8	-1.4
CNCC12CC3CC(CC(C3)C1)C2	104.0	102.0	20.7	-0.6
COc1ccc(-n2c(O)c(C=NCC(C)(C)N3CCOCC3)c3ccccc3c2=O)cc1OC	98.0	101.0	6.1	-36.4
CCN1C(=O)c2ccccc2S(=O)c2ccc(C(=O)NCCC3=CCCCC3)cc21 (configuration not stated)	101.0	100.0	-9.6	6.0
Cc1ccccc1C(=O)Nc1ccc(-c2ccc3nncn3n2)cc1	103.0	107.0	-21.0	-6.3
CC(C)(C)NC(=O)c1ccc2c(c1)C(=O)N(Cc1ccco1)C2=O	100.0	101.0	-21.3	-6.3
O=C(NCCc1ccccc1)C1CC(=O)N(C2CCCC2)C1 (configuration not stated)	104.0	100.0	17.1	4.3
COc1ccccc1N=Nc1[nH]c2ccc(C)cc2c1O	101.0	102.0	-14.1	0.0
Cn1c(SCc2ccccc2)nc2ccccc21	103.0	98.0	-3.2	/
Cn1cccc1C(=O)OCC(=O)c1ccc(Br)cc1	99.0	92.0	-11.7	-7.8
COc1ccc(C(=O)Nc2ccc(N3CCCCC3)cc2)cc1	103.0	108.0	-17.9	-3.6
c1nnc(NC2=NCCCCC2)s1	93.0	102.0	-15.8	3.7
Cn1c(-c2ccc(Br)cc2)cnc1SCC(=O)N1CCNC1=O	105.0	109.0	0.2	-5.3
CCN1CCCC1CNC(=O)c1ccccc1Cl (configuration not stated)	107.0	116.0	-11.9	/
O=C(Nc1ccccc1C(F)(F)F)c1cccs1	107.0	109.0	-16.0	/
O=C(CSc1nn2cnnc2s1)N1CCCC1	101.0	100.0	3.6	-4.2

As entered above:
Polio RdRp inh intensity, `O=C(NCCc1ccccc1)C1CC(=O)N(C2CCCC2)C1` (configuration not stated) is entered as 100.0
MbtI inh, `c1nnc(NC2=NCCCCC2)s1` is entered as 3.7
Polio RdRp inh, `O=C(CSc1nn2cnnc2s1)N1CCCC1` is entered as 101.0
Polio RdRp inh intensity, `Cn1c(SCc2ccccc2)nc2ccccc21` is entered as 98.0
Polio RdRp inh intensity, `O=C(Nc1ccccc1C(F)(F)F)c1cccs1` is entered as 109.0
MenB inh, `Cn1c(-c2ccc(Br)cc2)cnc1SCC(=O)N1CCNC1=O` is entered as 0.2
MbtI inh, `Cn1cccc1C(=O)OCC(=O)c1ccc(Br)cc1` is entered as -7.8

Following part:
SMILES	Polio RdRp inh	Polio RdRp inh intensity	MenB inh	MbtI inh
CCOC(=O)c1sc(Nc2ccccc2C(F)(F)F)c(C(=O)OCC)c1N	101.0	112.0	-3.7	-16.3
COc1ccc2oc(-c3ccco3)cc(=O)c2c1	100.0	101.0	-52.0	33.0
Cc1cc(NC(=O)COC(=O)c2ccccn2)ccc1Cl	103.0	106.0	-15.2	/
Cc1ccc(C)c(N2CCN(C3CCCCCCC3)CC2)c1	99.0	102.0	9.5	-1.9
CCC(=O)Nc1nc(-c2ccccn2)cs1	106.0	103.0	-17.1	2.3
O=C(CNc1ccccc1)Nc1ccccc1	105.0	109.0	/	-10.4
CC(C)Cn1ncc(=O)n(CC(C)C)c1=O	97.0	99.0	2.3	1.7
COc1cccc(Nc2cc(C)nc3ccccc23)c1	102.0	103.0	-16.1	-228.4
COc1ccc(Cl)cc1NC(=O)C(OC)c1ccccc1 (configuration not stated)	101.0	100.0	5.0	-2.0
CC(=O)Oc1ccc(-c2ccc(C(=O)O)cc2)cc1	102.0	101.0	/	-0.6
FC(F)(F)c1nc(NCc2ccco2)nc2c1CCCCC2	99.0	100.0	-3.2	-7.4
CSc1cc(-c2ccc(F)cc2)nn1S(=O)(=O)c1ccc(C)cc1	105.0	107.0	-19.6	-15.2
O=C(Cn1cc(Br)ccc1=O)c1ccc2c(c1)OCCO2	114.0	113.0	-63.5	0.1
CC(=O)Nc1ccc(Br)c(C(F)(F)F)c1	107.0	112.0	-15.6	-6.0
N#CCc1nc2ccc(F)cc2c(=O)[nH]1	102.0	96.0	/	-3.0
CCN1C(=O)c2ccc(C(=O)c3ccc(C(=O)O)cc3)cc2C1=O	103.0	102.0	12.4	3.1
CSc1ncc(C(=O)O)c(-c2ccccc2)n1	101.0	105.0	0.5	6.7
O=C(O)CNC(=O)/C=C/c1cccc(C(F)(F)F)c1	100.0	105.0	-0.4	-5.5
O=C(c1ccncc1)c1nccn1-c1ccccn1	107.0	109.0	/	0.5
N#CCCN(Cc1ccccc1)C(=O)Nc1ccc2c(c1)CCO2	99.0	100.0	7.8	1.8
CCOc1ncccc1C(=O)N1CCSC1=NCCc1ccccc1	103.0	108.0	11.4	-10.2
CCc1nn(CCCC(=O)N(C)Cc2ccccc2)c(=O)c2cc3occc3n12	104.0	105.0	-2.4	11.2
CCC(=O)Nc1cc2c(C)cc(=O)oc2cc1C	101.0	108.0	-1.1	12.9
CC(Nc1ccccc1)C(=O)O (configuration not stated)	/	/	8.9	2.5
Cc1cccc(NC(=O)CC23CC4CC(C2)CC(n2nnc(C)n2)(C4)C3)c1	99.0	103.0	6.4	-5.5
CCN1C(=O)/C(=C/c2ccccc2)N(C)C1=S	103.0	103.0	-169.2	-1.2
COc1ccc(N2CCN(C(=O)COC(=O)C3CC4CCCC(C3)C4=O)CC2)cc1 (configuration not stated)	103.0	106.0	-24.4	-1.7
COc1nc(N(C)C)nc(N(CN2C(=O)c3ccccc3C2=O)S(=O)(=O)c2ccc(C)cc2)n1	103.0	104.0	-21.8	-13.7
O=C1C2C3C=CC(C3)C2C(=O)N1c1ccncc1 (configuration not stated)	102.0	103.0	2.3	13.6
CC(=O)N1CC2(NC(=O)c3ccccc3N2)c2ccccc21 (configuration not stated)	105.0	105.0	-19.4	-9.0
O=S(=O)(c1ccccc1F)N(Cc1ccco1)Cc1nnc(-c2ccc(Cl)cc2)o1	108.0	112.0	6.8	-0.5
O=C(NCC(=O)N1CCN(S(=O)(=O)/C=C/c2ccccc2)CC1)c1ccccc1F	106.0	106.0	-21.7	-9.3
CC(=O)Nc1ccc(SC(C)c2nc3ccccc3c(=O)[nH]2)cc1 (configuration not stated)	107.0	107.0	-26.8	47.6
COC(=O)c1sc2cc(OC)ccc2c1Cl	101.0	106.0	-18.9	86.2
CCN(CC)c1ccc(/C=C2/C(=O)NN(c3ccc(C)cc3)C2=O)cc1	101.0	107.0	6.6	-0.8
CC(=O)N(Cc1ccccc1)Cc1cc2ccc(C)cc2[nH]c1=O	100.0	104.0	-18.2	-30.9
COC(=O)c1ccc(-c2ccco2)n1CC(=O)N1CCC(Cc2ccccc2)CC1	101.0	101.0	-6.8	34.1
OCCN(CCO)CC(O)Cn1c2ccc(Br)cc2c2cc(Br)ccc21 (configuration not stated)	99.0	101.0	-1.9	1.8
Cc1nn(C)c(C)c1/C=C/C(=O)O	100.0	103.0	0.5	11.1
O=C(COC(=O)Cn1cnc2ccccc21)NCC1CCCO1 (configuration not stated)	92.0	96.0	-4.8	-11.3
CCSCC(=O)N1CCN(c2nnc(-c3ccccc3)c3ccccc23)CC1	100.0	101.0	-22.5	-1.2
CC1(C)CN=C(N(C(=O)Nc2cccc(Cl)c2)C2CCCCC2)S1	101.0	103.0	-28.0	-9.1
COc1ccc(-c2noc(CSc3nnc(C)n3-c3ccc(Cl)cc3)n2)cc1	104.0	106.0	-34.8	-11.5
O=C1S/C(=C/c2ccccc2F)C(=O)N1CNc1ccccc1	100.0	101.0	10.6	5.2
CCc1ccc(C2C(C#N)=C(N)Oc3cc4c(cc32)OCO4)cc1 (configuration not stated)	103.0	110.0	-30.5	0.1
COc1ccccc1-c1c(C)nn2c(NCC(OC)OC)cc(C)nc12	103.0	101.0	-27.6	-16.8
CSc1nc(SCC(=O)C(C)C)nc(N)c1C#N	106.0	93.0	4.0	/
COC(=O)C1C(C)=CC(=O)CC1CC(C)C (configuration not stated)	100.0	105.0	/	-7.7
CCCCNC(=O)Cn1c(=O)n(C)c2ccccc21	103.0	103.0	-3.2	3.7
CN1CCC(N(C)C(=O)c2nn(Cc3ccccc3)c(=O)c3ccccc23)CC1	106.0	103.0	-13.9	-8.1
Carrying on:
SMILES	Polio RdRp inh	Polio RdRp inh intensity	MenB inh	MbtI inh
O=C(C1CCCCN1S(=O)(=O)c1ccccc1)N1CCCCC1 (configuration not stated)	102.0	103.0	/	-3.5
Cc1cc(C(=O)Nc2cc(C)n(Cc3ccc(Cl)cc3)n2)on1	99.0	101.0	-3.2	8.3
COc1cc(NC(=O)CNCc2ccc(Cl)cc2)ccc1-n1cnnn1	102.0	102.0	1.3	-23.8
O=C(O)CCC(=O)N1N=C(c2cccs2)CC1c1ccccc1O (configuration not stated)	104.0	101.0	-54.5	69.8
CCn1c(Cc2nnc(SCC(=O)c3ccc(F)cc3)n2CC)nnc1SCC(=O)c1ccc(F)cc1	103.0	100.0	-33.8	-9.5
CCCNC(=O)C1CN(CC(=O)NC2CCCCC2)c2ccccc2O1 (configuration not stated)	98.0	96.0	-19.6	22.0
